Resorufin autofl = compound fluoresces in the resorufin spectral region; hit rate 0.04% among 59,000; Compound fluorescence, resorufin region 547/598 nm, buffer; active compounds read high; max dye-equivalent concentration, M; active = above 10 nM dye equivalent; inconclusive = 1 to 10 nM; inactive = 1 nM or less; a few of its hits are not listed in these tables; note: highest value over a series up to 38 µM
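Compounds in 100 mM Tris, pH 8.0, incubated 15 min at room temperature, then fluorescence read at 547 nm excitation/598 nm emission. Signal converted to dye-equivalent concentration via an on-plate six-point resorufin standard curve, per compound concentration.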
A647 autofl = compound autofluorescence in A647 spectral region; Compound fluorescence, A647 channel (570/671 nm), Tris buffer; max dye-equivalent concentration, M; 59,000 tested, under 10 active; active means above 1 µM dye equivalent; inconclusive means 0.1 to 1 µM; inactive means 0.1 µM or less;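 note: values scaled relative to a standard on each plate; highest value over a series up to 38 µM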
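Each compound's intrinsic fluorescence at 570 nm excitation and 671 nm emission is measured across its concentration series in 100 mM Tris, pH 8.0, after 15 min at room temperature, and reported relative to an A647 curve.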
A488 fluor = A488 region autofluorescence | compound autofluorescence, A488 spectral region, dye equivalency; active compounds read high | max dye equivalency, M | hit rate 0.1% among 59,000; active = above 10 nM dye equivalent; inconclusive = 1 to 10 nM; inactive = 1 nM or less; about half of its hits are not listed in these tables;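 note: highest value over a series up to 38 µM; compound alone in buffer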
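Read-out: relative fluorescence at 480/540 nm, expressed as Alexa 488 dye-equivalent concentration from a six-point A488 standard included per plate. Conditions: 100 mM Tris, pH 8.0; 15 min incubation, room temperature.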
TSHR ag = TSH receptor (human) agonism. hit rate 0.48% among 73,000. AID 926. P16473. Potency, µM (highest dose often 57.1 µM), without a hit: at the top dose activation, usual class: activators. HEK293-CNG-TSHR cells (CNG channel as cAMP sensor), membrane potential dye, cAMP; active = well fitted activation curve of enough size with the parental cells flat; inconclusive = any curve in the parental cells; inactive = parental cells flat and receptor cells flat or falling; note: potency is the fitted concentration of half-maximal effect; % of control where 0% means no effect; weak receptor curves with flat parental cells got no call and are not listed
Target sequence (P16473 whole entry, looked up): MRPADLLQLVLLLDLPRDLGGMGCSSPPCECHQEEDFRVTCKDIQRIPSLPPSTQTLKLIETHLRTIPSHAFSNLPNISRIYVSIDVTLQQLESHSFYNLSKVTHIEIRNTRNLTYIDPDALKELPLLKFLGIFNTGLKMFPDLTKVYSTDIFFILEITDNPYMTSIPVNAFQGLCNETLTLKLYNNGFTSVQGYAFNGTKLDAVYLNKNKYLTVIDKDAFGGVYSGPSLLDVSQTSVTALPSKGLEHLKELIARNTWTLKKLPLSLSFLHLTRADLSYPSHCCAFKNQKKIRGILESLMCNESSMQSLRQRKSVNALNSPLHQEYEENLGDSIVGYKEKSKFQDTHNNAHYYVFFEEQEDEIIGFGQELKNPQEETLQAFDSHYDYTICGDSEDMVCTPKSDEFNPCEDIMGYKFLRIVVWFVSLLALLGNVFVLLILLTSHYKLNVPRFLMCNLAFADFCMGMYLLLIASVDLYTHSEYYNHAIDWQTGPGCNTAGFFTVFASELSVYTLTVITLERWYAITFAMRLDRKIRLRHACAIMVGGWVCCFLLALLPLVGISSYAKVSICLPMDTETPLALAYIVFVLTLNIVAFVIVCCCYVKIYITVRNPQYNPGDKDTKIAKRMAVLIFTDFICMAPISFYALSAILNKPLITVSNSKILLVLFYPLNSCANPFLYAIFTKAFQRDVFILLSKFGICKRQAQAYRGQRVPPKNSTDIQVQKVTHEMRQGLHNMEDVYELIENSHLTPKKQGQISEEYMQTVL
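HEK 293 cells stably expressing TSHR and a modified CNG channel, with CNG-only parental cells as counterscreen, were preloaded 60 min at room temperature with membrane potential dye containing 100 uM RO 20-1724. Compound exposure was 30 min, and depolarization was read as fluorescence at 590 nm.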
AID923 = qHTS Assay for Allosteric/Competitive Inhibitors of Caspase-1: Spectroscopic Profiling in AFC Spectral Region; compound fluorescence, AFC spectral region (405/520 nm); almost no hit is shown here; hit rate 1.1% among 75,000; Potency, µM (highest dose often 57.5 µM), for inactives: top-dose fluorescence increase, usual class: activators; AID 923, 2007; active = well fitted activation curve with a large enough effect; inconclusive = small, poorly fitted or top-dose-only effect;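 note: potency is the fitted concentration of half-maximal effect; 0% is about no effect; scaled to a free AFC standard on each plate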
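Baseline compound fluorescence (AFC region, 405 nm ex/520 nm em) taken from the intercept of kinetic reads with 50 nM caspase-1 and 5 uM Ac-WEHD-AFC; normalized to an on-plate AFC standard curve; compounds titrated up to 57 uM.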
The depositor's hits bear a star; i = inactive; ? = inconclusive; . = not tested or not shown; [ ] = remark or other dose.

SMILES,Resorufin autofl,A647 autofl,A488 fluor,TSHR ag,AID923
COc1ccc(Br)cc1C(=O)O,i,3.6e-09,i,-1%,1.2%
Cc1cc(-n2c(SCC(=O)NCc3cccs3)nc3n[nH]c(C)c3c2=N)ccc1Cl,i,1e-09,i,23%,1.7%
CCNC(=O)c1ccccc1NC(=O)c1cccc(S(=O)(=O)N2CCC(C)CC2)c1,i,1.1e-08,i,.,-1.4%
COc1cc(SC)ccc1C(=O)Nc1ccon1,i,1.3e-08,i,-2%,-4.9%
COc1ccccc1C(=O)Nc1ncc2c(n1)CC(c1ccco1)CC2=O (stereo not drawn),i,5.9e-09,i,6%,-1.1%
Brc1ccc(CSc2ncn[nH]2)cc1,.,.,.,5%,-0.8%
CC(=O)Nc1nc(CC(=O)c2ccccc2)cs1,.,.,.,1%,1.0%
CN(C)c1ccc(C(=O)c2ccccc2C(=O)O)c(O)c1,i,1e-09,i,2%,-0.8%
Cc1ccc(S(=O)(=O)N2CCC(C(=O)N[C@@H](C)C(=O)Nc3ccc4c(c3)OCO4)CC2)cc1,i,5.6e-08,i,-6%,-0.8%
COc1ccccc1-c1cc(N)n[nH]1,i,1.2e-08,i,0%,-0.3%
COc1cccc(OC)c1C(=O)Nc1ccc(S(=O)(=O)Nc2cc(C)nc(C)n2)cc1,i,3.6e-08,i,-3%,1.6%
Cc1ccc(S(=O)(=O)NCC(=O)N(CCc2ccccc2)CC(=O)NCc2ccco2)cc1,i,4.1e-08,i,15%,0.8%
CC1(C)C(=O)Nc2ccccc2N1C(=O)CN1C(=O)c2ccccc2C1=O,i,8.6e-09,i,5%,0.1%
CCN(CC)CCCNC(=O)Cn1cc2c(n1)CCC(C)C2 (stereo not drawn),.,.,.,2%,0.4%
CCOC(=O)N1CCN(C(=O)c2nc3ccccc3s2)CC1,i,7.8e-09,i,5%,0.7%
Cc1ccc(-c2nnc(N(C)C(=O)C3CCCO3)s2)cn1 (stereo not drawn),i,1e-09,i,-15%,-0.7%
Cc1cccc(N2CCCn3c2nc2c3c(=O)n(CC(=O)OCc3ccccc3)c(=O)n2C)c1,i,1e-09,i,3%,1.5%
CCc1ccc(NC(=O)Nc2cccs2)cc1,i,1.7e-08,i,-23%,0.1%
Cc1ccc(S(=O)(=O)N2CCN(C(=O)CSc3nnnn3C)C2)cc1,i,4.7e-08,i,-2%,-1.1%
C=CCSc1nnc(-c2ccccc2NC(C)=O)c(=O)[nH]1,i,3.4e-08,i,.,0.4%
Cn1nc(-c2ccc(Cl)cc2)c2cc(C(=O)N3CCN(c4ccccc4)CC3)sc21,.,.,.,-1%,1.4%
CCOC(=O)c1c(C)[nH]c(C(=O)COC(=O)c2ccc(F)c(S(=O)(=O)N3CCOCC3)c2)c1C,i,1.4e-08,i,18%,2.3%
Cn1c(=O)cc(OCCCC(=O)NCCN2CCN(c3ccccc3F)CC2)c2ccccc21,.,.,.,10%,3.8%
CCOC(=O)N1CCC(NC(=O)CCC(=O)N2CCOc3ccc(C)cc32)CC1,i,1e-09,i,-3%,-1.5%
COc1ccccc1NC(=O)Cc1noc(CN(C)Cc2cccs2)n1,i,7.7e-09,i,7%,-0.2%
CC(=O)Nc1ccc(S(=O)(=O)n2nc(C)cc2C)cc1,i,4.4e-09,i,3%,-1.5%
CC1(C(=O)CSc2ncn[nH]2)CCC(=O)O1 (stereo not drawn),i,1e-08,i,.,.
COC(=O)CSc1nc2ccc(NC(=O)CSc3nnnn3Cc3ccccc3)cc2s1,.,.,.,29%,14%
c1ccc(Nc2ccccc2)cc1,.,.,.,-5%,1.2%
COc1ccccc1C(=O)Nc1ccc2c(c1)OCO2,.,.,.,?,-0.3%
Cn1c(=O)[nH]c(=O)c2c1nc(CN1CCN(c3ccc(F)cc3)CC1)n2CCc1ccccc1,i,1.4e-08,i,?,0.6%
CCOC(=O)N1CCN(S(=O)(=O)c2ccc(OC)c3ccccc23)CC1,i,3.8e-08,i,?,0.4%
Cc1ccc(S(=O)(=O)c2c(C)nn(C(C)(C)C)c2OC(=O)c2cccs2)cc1,i,2.3e-08,i,8%,2.4%
CCCCOC(=O)CSc1nnc(N)s1,.,.,.,0%,0.5%
Cc1nn(-c2ccccc2)c2sc(C(=O)N(CC(=O)NC(C)(C)C)Cc3ccco3)cc12,i,3.3e-09,i,?,1.6%
COc1cc(C2=NOC(C(=O)NCc3ccco3)C2)cc(OC)c1OC (stereo not drawn),i,1.3e-08,i,4%,-0.6%
COc1cc(NC(=O)COc2ccc(-n3cnnn3)cc2)c(OC)cc1Cl,.,.,.,7%,1.9%
COc1ccccc1NC(=O)CC(NCc1ccccc1)C(=O)O (stereo not drawn),i,1e-09,i,8%,1.2%
COCCCNC(=O)CN(Cc1ccc(Cl)cc1)S(C)(=O)=O,i,1.9e-08,i,?,-0.5%
COC(=O)c1cccc(N(C(=O)CNC(=O)c2ccco2)C(C(=O)NC2CCCC2)c2ccco2)c1 (stereo not drawn),i,1e-09,i,1%,-0.6%
COc1ccc(OC)c(S(=O)(=O)Nc2cc(OC)c(Cl)cc2OC)c1,i,2.7e-09,i,15%,-3.1%
COc1cccc(C2=NOC(C(=O)NCc3ccccn3)C2)c1 (stereo not drawn),i,1e-09,i,2%,-1.3%
COc1cc2[nH]c(=O)n(CCC(=O)NC3CCN(Cc4ccccc4)CC3)c(=O)c2cc1OC,i,1e-09,i,-3%,0.8%
CCOC(=O)CSc1cc(=O)n(C)c2cc(Cl)ccc12,i,2.4e-09,i,.,0.9%
O=C(CCSc1ccc(Cl)cc1)N1CCN(c2ncccn2)CC1,i,1.7e-09,i,?,0.9%
C=C(C)COc1ccc(-c2nc(N)ncc2Oc2ccccc2OCC)c(O)c1,i,1e-09,i,9%,-1.3%
CS(=O)(=O)N1CCCC(C(=O)NC2CCCCCCC2)C1 (stereo not drawn),i,1e-09,i,7%,-0.4%
O=S(=O)(c1cc(Cl)ccc1Cl)N1CCN(Cc2ccc3c(c2)OCO3)CC1,.,.,.,33%,-0.3%
Cc1c(/C(O)=C2\C(=O)C(=O)N(CCN(C)C)C2c2cccnc2)cnn1-c1ccccc1 (stereo not drawn),i,4.8e-09,i,.,.
O=C(O)[C@@H]1CCCN1c1ncnc2sc3c(c12)CCC3,i,1e-09,i,-10%,-0.9%
CCCn1c(=O)c(Cc2ccccc2)c(O)c2ccccc21,i,2.2e-08,i,21%,1.4%
COc1cccc(Oc2cn[nH]c2-c2ccc(OC)cc2O)c1,i,2.7e-08,i,?,-0.1%
Cc1nnc(SCC(=O)N2CCN(S(=O)(=O)c3ccc(Cl)cc3)CC2)n(N)c1=O,i,1e-09,i,2%,-1.0%
COCCn1c(=O)c(-c2ccc(F)cc2)nc2cnc(OC)nc21,i,3.3e-09,i,0%,-0.7%
CC(=O)NCCc1ccc(S(=O)(=O)N2CCCC2)cc1,.,.,.,0%,-3.0%
O=C1C2C3CCCC3=C3CCCC3C2C(=O)N1c1ccc(Cl)cc1 (stereo not drawn),i,3.7e-08,i,3.2µM*,9.7%
Nc1nc(SCCOc2ccccc2)n[nH]1,i,1e-09,i,7%,-1.7%
O=C(CCNS(=O)(=O)c1ccc(Br)s1)N1CCCCC1,i,3e-09,i,-3%,2.3%
Cc1ccc(/C(O)=C2/C(=O)C(=O)N(Cc3cccnc3)C2c2ccccn2)cc1 (stereo not drawn),i,1e-09,i,6%,2.5%
COc1ccc(N2CCN(C(=O)CSc3ncccc3-c3nc4ccccc4[nH]3)CC2)cc1,i,3e-09,i,5%,3.1%

Next part.
SMILES,Resorufin autofl,A647 autofl,A488 fluor,TSHR ag,AID923
c1ccc(-c2noc(-c3cccnc3)n2)cc1,.,.,.,-6%[11.4 µM],-0.5%
O=C(COC(=O)c1ccccn1)Nc1c(Cl)cccc1Cl,i,2.7e-09,i,3%,-3.9%
CCOC(=O)c1c(C)[nH]c(C)c1C(=O)Cn1nnc(-c2ccccc2C)n1,i,1e-09,i,?,0.1%
Cc1c(C(=O)N2CCCCC2)sc(N)c1C#N,.,.,.,-6%,-0.2%
CSc1nc(-c2ccccc2)ccc1C(N)=O,i,1.9e-09,i,26%,-0.1%
Cc1cc(=O)oc2cc(OCC3CC(c4ccc(N(C)C)cc4)=NO3)ccc12 (stereo not drawn),i,3.3e-08,i,3%,-0.3%
COCC(C)n1c(C)cc(C(=O)Cn2c(=O)oc3ccccc32)c1C (stereo not drawn),i,2e-08,i,4%,1.2%
CC(C)NC(=O)N1CCC2(CC1)CCN(C(=O)c1cc(C(F)(F)F)cc(C(F)(F)F)c1)CC2,i,1e-09,i,5%,2.6%
Cc1nnc(SCCC#N)n(CCC#N)c1=O,i,1e-09,i,.,.
CCOC(=O)c1[nH]c2ccc(OC)cc2c1NC(=O)CCN1CCC(C)CC1,i,5.1e-08,i,.,.
COc1cccc(NC(=O)CSc2nccn2-c2cccc(OC)c2)c1,i,6.6e-09,i,16%,1.5%
Cc1nn2cc(-c3ccccc3)nc2s1,i,2.7e-08,i,-5%,-0.6%
CC12CCC(C(=O)O)(c3nc(C#N)c(C#N)nc31)C2(C)C (stereo not drawn),i,1e-09,i,11%,0.5%
CC12CCCCN1CCCc1c2[nH]c2ccccc12 (stereo not drawn),i,4.7e-08,i,?,6.3%
Cc1ccc2c(CC(=O)Nc3nc(C)cs3)coc2c1,i,3.5e-08,i,?,-0.6%
O=C(Cn1ccc2ccccc2c1=O)N1CCN(Cc2ccc3c(c2)OCO3)CC1,i,1e-09,i,0%[11.4 µM],0.5%
CN(Cc1nc(-c2cccnc2)no1)S(=O)(=O)c1ccccc1,i,1e-09,i,7%,1.4%
CCCS(=O)(=O)NCc1ccc2c(c1)cc(C)n2C,i,2.8e-08,i,1%,11%
Cc1noc(C)c1-c1ccc2ncnc(Nc3ccccc3)c2c1,i,1e-09,i,15%,0.7%
CS(=O)(=O)N1CCC(c2noc(-c3ccc(C(F)(F)F)cc3)n2)CC1,i,3.1e-09,i,25%,0.9%
Cc1cccc(-c2noc(CN(C(=O)CCc3ccccc3)C(C)C)n2)c1,i,5.2e-09,i,?,0.4%

Assay outcomes deposited in PubChem by National Center for Advancing Translational Sciences (NCATS).

Some of the compounds tested; the hit share may differ from the screen's.
